A488 autofl: compound fluoresces in the A488 spectral region; compound autofluorescence, A488 spectral region, dye equivalency; active compounds read high; 0.1% of 59,000 active; AID 591; max dye equivalency, M; active = above 10 nM dye equivalent; inconclusive = 1 to 10 nM; inactive = 1 nM or less; about half of its hits are not listed in these tables;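 note: highest value over a series up to 38 µM; compound alone in buffer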
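Read-out: relative fluorescence at 480/540 nm, expressed as Alexa 488 dye-equivalent concentration from a six-point A488 standard included per plate. Conditions: 100 mM Tris, pH 8.0; 15 min incubation, room temperature.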
AID923: qHTS Assay for Allosteric/Competitive Inhibitors of Caspase-1: Spectroscopic Profiling in AFC Spectral Region | compound fluorescence, AFC spectral region (405/520 nm); almost no hit is shown here | Potency, µM (top dose mostly 57.5 µM), for the others: at the highest dose fluorescence increase, actives largely listed as activators | 1.1% of 75,000 active; active = well fitted activation curve with a large enough effect; inconclusive = small, poorly fitted or top-dose-only effect;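 note: potency is the fitted concentration of half-maximal effect; 0% is about no effect; scaled to a free AFC standard on each plate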
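Titrations up to 57 uM read every 20 sec for 3 min (405/520 nm) with 50 nM caspase 1 and 5 uM Ac-WEHD-AFC, pH 7.5 HEPES buffer. Fluorescence-vs-time intercept gave baseline, scaled against on-plate AFC standard.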
A647 autofl: A647 region autofluorescence; Compound fluorescence, A647 channel (570/671 nm), Tris buffer; max dye-equivalent concentration, M; 59,000 tested, under 10 active; AID 592; active means above 1 µM dye equivalent; inconclusive means 0.1 to 1 µM; inactive means 0.1 µM or less;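 note: values scaled relative to a standard on each plate; highest value over a series up to 38 µM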
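Buffer was dispensed, compounds and Alexa 647 standards were pin-transferred, and plates sat 15 min at room temperature. Intensity at 570/671 nm was then converted to dye-equivalent concentration using the plate's A647 standard curve.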
TSHR agonist: TSH receptor (human) agonism | P16473 | HEK293-CNG-TSHR cells (CNG channel as cAMP sensor), membrane potential dye, cAMP | Potency, µM (titrated, usually from 57.1 µM), inactives show top-dose activation, usual class: activators | 0.48% of 73,000 active | AID 926; active = well fitted activation curve of enough size with the parental cells flat; inconclusive = any curve in the parental cells; inactive = parental cells flat and receptor cells flat or falling; note: potency is the fitted concentration of half-maximal effect; % of control where 0% means no effect; weak receptor curves with flat parental cells got no call and are not listed
Target sequence (P16473 whole entry, looked up): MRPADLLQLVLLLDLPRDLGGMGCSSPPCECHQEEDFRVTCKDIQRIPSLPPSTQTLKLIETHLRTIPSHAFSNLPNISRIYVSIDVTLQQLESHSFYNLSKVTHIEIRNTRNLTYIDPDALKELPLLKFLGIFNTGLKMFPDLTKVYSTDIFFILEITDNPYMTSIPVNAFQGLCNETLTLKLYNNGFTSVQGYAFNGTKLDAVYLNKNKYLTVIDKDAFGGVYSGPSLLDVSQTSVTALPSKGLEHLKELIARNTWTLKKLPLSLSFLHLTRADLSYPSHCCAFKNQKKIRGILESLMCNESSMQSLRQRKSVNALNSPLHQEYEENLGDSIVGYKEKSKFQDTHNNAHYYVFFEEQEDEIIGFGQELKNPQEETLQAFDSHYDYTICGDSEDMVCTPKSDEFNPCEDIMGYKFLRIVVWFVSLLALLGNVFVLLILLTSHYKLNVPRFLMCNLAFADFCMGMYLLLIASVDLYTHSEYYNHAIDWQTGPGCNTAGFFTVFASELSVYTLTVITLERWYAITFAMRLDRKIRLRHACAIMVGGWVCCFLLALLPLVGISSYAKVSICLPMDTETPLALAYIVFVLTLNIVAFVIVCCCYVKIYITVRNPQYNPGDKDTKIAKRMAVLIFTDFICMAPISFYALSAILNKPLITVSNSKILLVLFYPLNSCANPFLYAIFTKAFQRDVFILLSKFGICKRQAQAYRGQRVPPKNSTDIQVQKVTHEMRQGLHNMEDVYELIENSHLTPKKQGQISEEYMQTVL
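cAMP rise detected as CNG-channel membrane depolarization by fluorescent dye (emission 590 nm), 30 min after compound, following 60 min dye loading containing 100 uM RO 20-1724 at room temperature. Cells: TSHR/CNG HEK 293, with parental CNG HEK 293 as control.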
Resorufin autofl: compounds fluorescent in resorufin spectral region | Compound fluorescence, resorufin region 547/598 nm, buffer; active compounds read high | max dye-equivalent concentration, M | 0.04% of 59,000 active | AID 588; active = above 10 nM dye equivalent; inconclusive = 1 to 10 nM; inactive = 1 nM or less; a few of its hits are not listed in these tables; note: highest value over a series up to 38 µM
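Compounds in 100 mM Tris buffer, pH 8.0, incubated 15 min at room temperature, then read with 547 nm excitation and 598 nm emission filters. Fluorescence was converted to dye-equivalent concentration using an on-plate six-point resorufin standard curve.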
Starred values were filed as active, the others as inactive; i = inactive; ? = inconclusive; nt = no result given; & = joins results of further samples; [ ] = another dose, or the depositor's remark. This is a subset; rates above refer to the full screens.

SMILES	A488 autofl	AID923	A647 autofl	TSHR agonist	Resorufin autofl
CN1CCc2c(sc3nc(SCC(N)=O)n(-c4ccccc4)c(=O)c23)C1	i	-0.3%	1e-09	nt	i
COc1ccccc1NC(=O)Cc1noc(CSc2cc(C)c3ccccc3n2)n1	i	4.4%	1.1e-08	?	i
O=C1C2=C(c3ccccc31)[N+](=O)[C@@H]1CCCC[C@@H]1N2[O-]	i	5.5%	9.9e-09	-5%	i
COc1ccccc1CN(Cc1ccco1)S(=O)(=O)c1ccc(-n2cnnn2)c(OC)c1	i	0.3%	9.1e-09	?	i
COc1ccc(CCN2C(=O)CC(Nc3ccc(N4CCOCC4)cc3)C2=O)cc1OC (stereo not drawn)	i	0.6%	2.6e-08	3%	i
CC(=O)Nc1ccc(NC(=O)Cn2cc3c(n2)CCCC3)cc1	i	-0.4%	3.2e-09	-1%	i
O=C(O)CN1C(=O)COc2cc(S(=O)(=O)N3CCCC3)ccc21	nt	1.3%	nt	1%	nt
COc1ccc(Cl)cc1NC(=O)C1CSC(c2ccncc2)=N1 (stereo not drawn)	nt	4.4%	nt	10%	nt
CCOc1ccccc1-c1nc(-c2ccc(NC(=O)c3ccc(Br)o3)cc2)no1	i	1.9%	2.8e-09	14%	i
COc1cc(NC(=O)CN2CCN(S(=O)(=O)c3ccc(C(C)C)cc3)CC2)cc(OC)c1	i	0.1%	1e-09	nt	i
O=C(CSc1nc2ccccc2n1CC(=O)N1CCCC1)N1CCN(C(=O)c2ccco2)CC1	i	0.9%	1.7e-08	-1%	i
COc1ccccc1NC(=O)N(Cc1ccccc1)c1ccccn1	i	0.1%	4e-08	?	i
COC(=O)c1ccccc1NC(=O)CSc1nccn1C	i	0.6%	1.3e-08	1%[11.4 µM]	i
O=C(COC(=O)c1cncc(Br)c1)NCCC1=CCCCC1	i	1.3%	1e-09	20%	i
Cc1ccc(S(=O)(=O)C(C#N)c2nc3ccccc3nc2OC(C)C)cc1 (stereo not drawn)	i	6.2%	5e-09	7%	i
Cc1ccc2c(c1)c1c(n2C)C(C(N)=O)CCC1 (stereo not drawn)	i	0.2%	4.2e-09	-13%	i
Cc1ccnc(NC(=O)Nc2ccc3c(c2)N(C)C(=O)CS3)c1	i	0.0%	2.4e-08	23%	i
COc1ccc(C(CC(=O)NC(C)(C)C)n2cccc2)cc1 (stereo not drawn)	i	-0.1%	2.2e-08	14%	i
CC(C)(C)C(=O)CN1CCN(S(=O)(=O)c2ccc(F)cc2)CC1	nt	3.8%	nt	-6%	nt
Cn1c(=O)[nH]c(=O)c2c1nc(SCCN1CCOCC1)n2Cc1ccccc1	i	1.1%	3.9e-09	4%	i
COc1ccccc1C1C2CCCCC2(O)CCN1CC(=O)Nc1ccccc1 (stereo not drawn)	i	1.3%	1e-09	11%	i
Cn1c(=O)c2c(ncn2CC(=O)Nc2nnc(Cc3ccccc3)s2)n(C)c1=O	i	-1.2%	1.3e-08	8%	i
COc1ccc(OC)c(CCNC(=O)CS(=O)(=O)Cc2nc(-c3ccccc3C)oc2C)c1	i	-0.5%	2.5e-09	?	i
COC(=O)c1cn(CC(=O)NCc2cccs2)c2ccccc12	i	2.5%	3.5e-09	10%	i
C=CCN1CCc2cc(O)c(O)cc2[C@H](c2ccccc2)C1	i	0.1%&0.2%	2.9e-09	12%&13%	i
CCn1c(=O)c2cc(C(=O)Nc3cc(C)on3)sc2c2ccccc21	nt	-2.2%	nt	5%	nt
Cc1cc(C)c(S(=O)(=O)N2CCN(CCO)CC2)c(C)c1	nt	1.7%	nt	10%	nt
COc1ccc(C(=O)Nc2cccc(C(C)=O)c2)cc1OC	nt	0.4%	nt	4%	nt
COc1ccc(-c2ccc(CCC(=O)O)n2NC(=O)c2cccs2)cc1	i	4.3%	7.5e-08	2%	i
CCC(C)c1ccc(O)c(NC(=O)c2cccnc2)c1 (stereo not drawn)	i	-0.4%	1e-09	3%[11.4 µM]	i
COc1ccc(C(=O)N2CCC3(CCN(Cc4cc(C(F)(F)F)cc(C(F)(F)F)c4)CC3)CC2)cc1	i	3.1%	1.5e-08	25%	i
O=c1cc(-c2ccccc2)oc2c1ccc1ccccc12	i	-2.1%	1e-09	?	i
CC(=O)Oc1ccccc1C(=O)Oc1ccc(/C=N/n2cnnc2)cc1	nt	0.6%	nt	-6%	nt
Cc1ccc(S(=O)(=O)N(C)Cc2nc(-c3ccccn3)no2)cc1	i	0.4%	1e-09	-19%	i
Cc1occc1C(=O)Nc1cccnc1	i	3.4%	4.2e-09	11%	i
COc1cc(-c2nc3cnccc3n2C)cc(OC)c1OC	i	0.7%	4.5e-08	7%	i
CC(C)=C(NC(=O)c1ccccc1)C(=O)NCCCC(=O)O	nt	0.8%	nt	33%[11.4 µM]	nt
CCN1CCN(c2ncc(C(=O)Nc3cc(Cl)ccc3OC)c3ccccc23)CC1	i	1.3%	1.1e-08	20%	i
C=CCn1c(SCc2nc3ccccc3[nH]2)nnc1-c1ccncc1	i	5.1%	2.5e-08	2%	i
C=CCn1c(C)cc(C(=O)CSc2nnc(-c3cccc(S(=O)(=O)N(CC)CC)c3)o2)c1C	i	1.3%	2.8e-08	?	i

Random excerpt: five entries already listed
SMILES	A488 autofl	AID923	A647 autofl	TSHR agonist	Resorufin autofl
COc1ccccc1CN(Cc1ccco1)S(=O)(=O)c1ccc(-n2cnnn2)c(OC)c1	i	0.3%	9.1e-09	?	i
C=CCn1c(SCc2nc3ccccc3[nH]2)nnc1-c1ccncc1	i	5.1%	2.5e-08	2%	i
CC(C)(C)C(=O)CN1CCN(S(=O)(=O)c2ccc(F)cc2)CC1	nt	3.8%	nt	-6%	nt
O=C(COC(=O)c1cncc(Br)c1)NCCC1=CCCCC1	i	1.3%	1e-09	20%	i
CCOc1ccccc1-c1nc(-c2ccc(NC(=O)c3ccc(Br)o3)cc2)no1	i	1.9%	2.8e-09	14%	i

Continuation:
SMILES	A488 autofl	AID923	A647 autofl	TSHR agonist	Resorufin autofl
Cc1[nH]c(=O)[nH]c(=O)c1S(=O)(=O)N1CCCC(C(=O)NCCc2ccccc2)C1 (stereo not drawn)	i	1.5%	3.2e-08	0%	i
C[C@@H](C(=O)Nc1ccc2ccccc2c1)[C@H]1C[C@]1(C)[C@H](NS(=O)(=O)c1ccccc1)c1ccccc1	nt	-0.7%	nt	-2%	nt
COc1ccc(-c2[nH]c(-c3cccc(OC)c3)nc2SCC(=O)NCc2ccco2)cc1	nt	0.8%	nt	-21%	nt
CCOC(=O)Cc1csc(NC(=O)c2cnc3scc(C)n3c2=O)n1	i	0.7%	2.1e-08	-4%	i
CC1(C(=O)CSc2nc3ccccc3s2)CCC(=O)O1 (stereo not drawn)	i	nt	1.6e-09	nt	i
CC(=O)c1c(N)nc2n(c1=O)CCCCC2	i	nt	3.3e-08	nt	i
Cc1ccc2c(c1)[C@H]1OCC[C@H]1[C@@H](c1ccncc1)N2	nt	0.4%	nt	-4%	nt
CSc1nc2c(c(=O)n1Cc1ccccc1)SC(C)C2 (stereo not drawn)	i	0.4%	3.5e-08	26%	i
CC(=O)c1ccc(OCCCC(=O)OCC(=O)N2CCN(c3ccccc3)CC2)cc1	i	-0.8%	4.8e-09	5%	i
O=c1cc(N2CCc3ccccc3C2)[nH]c(=O)n1Cc1ccc(F)cc1	i	-0.2%	1e-09	-1%	i
COc1ccc2nc3oc(C(=O)NCc4cccs4)cc3cc2c1	i	4.1%	1e-09	?	i
Cn1c(=O)c(=O)n(C)c2cc(S(=O)(=O)N3CCC(Cc4ccccc4)CC3)ccc21	i	-0.6%	2e-09	12%	i
COc1cc(OC)cc(-c2nnc(SCC(=O)N3c4ccccc4Sc4ccccc43)o2)c1	i	2.1%	4e-09	2%	i
CCOCc1nc(N)[nH]c(=O)c1Cc1ccc(OC(C)C)cc1	i	nt	1e-09	nt	i
O=C1OC(c2ccc(O)c(-c3ccccc3)c2)(c2ccc(O)c(-c3ccccc3)c2)c2c(Cl)c(Cl)c(Cl)c(Cl)c21	i	0.3%[11.5 µM]	1e-09	3%[11.4 µM]	i
COc1cccc(-c2nccc(NCc3ccccc3OC)n2)c1	i	-0.2%	2.6e-08	24%	i
Cc1cc(C(=O)CSc2nnnn2-c2ccc(Cl)cc2)c(C)n1CC1CCCO1 (stereo not drawn)	i	0.2%	1.7e-09	?	i
CC(C)OC(=O)CC1=NC(=O)CS1	i	nt	9.2e-08	nt	i
CCCC(=O)NCCCCNC(=O)CCC	nt	-0.4%	nt	1%	nt
CO[C@H]1COC(=O)C/C=C\[C@H](C)[C@@H](NS(=O)(=O)c2ccc(C)cc2)COC(=O)C/C=C\[C@@H]1C	nt	0.1%&0.1%[11.5 µM]	nt	0%&-5%[11.4 µM]	nt
COc1ccccc1CNc1ncnc2ccc(-c3c(C)noc3C)cc12	i	-2.1%	2.2e-08	?	i
Cc1cccc2cc(C(c3nnnn3Cc3ccccc3)N3CCN(c4ccccc4)CC3)c(=O)[nH]c12 (stereo not drawn)	i	-0.9%	1e-09	12%	i
O=C(c1ccco1)N1CCC2(CC1)CN(Cc1cc(C(F)(F)F)cc(C(F)(F)F)c1)C2	i	4.8%	1e-09	?	i
COc1cccc(C(c2nnnn2Cc2ccc(F)cc2)N2CCC(C(N)=O)CC2)c1OC (stereo not drawn)	i	-1.1%	5.6e-08	15%	i
CCn1c2ccccc2c2cc(C3N=C(N)Nc4nc5ccccc5n43)ccc21 (stereo not drawn)	i	1.0%	1e-09	1%	i
COC(=O)c1ccc(Cn2cnc3c(sc4nc(N5CCOCC5)c5c(c43)CCCC5)c2=O)o1	i	nt	2e-09	nt	i
CCc1ccc(NC(=O)CS(=O)CC(=O)NCC2OCCc3ccccc32)cc1 (stereo not drawn)	i	1.6%	1e-09	0%	i
CN(C)Cc1ccccc1-c1cncnc1NCc1ccccc1	i	-0.2%	1e-09	13%	i
Cc1cccc(C)c1OCC(=O)Nc1cccc(-c2nnc(-c3ccccc3)o2)c1	i	nt	2.2e-08	nt	i
CCn1c2c(c3cc(Cl)ccc31)CCCC2=O	nt	0.6%	nt	9%	nt
C[C@H](C(=O)c1ccncc1)c1ccccn1	i	3.3%[11.5 µM]	1e-09	-2%[11.4 µM]	i
c1ccc(-c2ccc(OCCCn3cncn3)cc2)cc1	i	-5.1%	1.6e-08	10%	i
Cc1cc(N2CCN(c3ccccc3)CC2)nc(NCc2ccccc2)n1	i	-0.5%	4.1e-08	-1%	i
COc1cccc(C2=NO[C@@H]3C(=O)N(Cc4ccccc4)C(=O)[C@H]23)c1OC	i	-1.5%	4e-09	18%	i
O=C(c1oc2ccccc2c1CSCc1ccccc1)N1CCN(c2ncccn2)CC1	i	5.2%	3.8e-08	?	i
Cc1ccc(-c2noc(CCC(=O)NCCCN3CCN(c4ccc(F)cc4)CC3)n2)cc1	i	0.2%	2.1e-08	?	i
OC(C#CCN1CCCCC1)c1ccccc1 (stereo not drawn)	nt	2.7%	nt	-2%	nt
O=C(CCSc1nc(-c2ccco2)cc(C(F)(F)F)n1)Nc1ccc2c(c1)OCO2	i	-2.2%	1e-09	?	i
COc1ccc(C(=O)N2CCC3(CCCN(c4ccc(-c5ccccc5)cc4)C3)CC2)cc1	i	1.0%	9.5e-09	-5%	i
CC(C(=O)N1CCOCC1)N1c2cccc3cccc(c23)S1(=O)=O (stereo not drawn)	i	-1.3%	7.4e-08	6%	i
CCc1ccc(S(=O)(=O)NCc2cn3c(C)csc3n2)s1	nt	-1.2%	nt	-1%	nt
COCCN(C(=O)CN1CCc2ccccc2C1)c1c(N)n(Cc2ccccc2)c(=O)[nH]c1=O	i	1.7%	1.4e-08	1%	i
CC(NC(=O)C1CCC1)c1ccccc1 (stereo not drawn)	i	-0.7%	3.4e-09	7%	i
